# Assay outcomes as filed in PubChem BioAssay.
# KCNQ2 inh = KCNQ2 potassium channel inhibitors, primary screen, cell-based, CHO-K1, FluxOR thallium flux, B-score (AID 2156); O88943; 20 min; active compounds read low; only compounds with negative scores are shown here; some inactives read as strong as hits; B-score at 10 µM; 1.1% of 310,000 active;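 active = fluorescence ratio B-score at most minus 3 library SDs, with starting brightness B-score within 2 library SDs, cut at about -5.5 in these data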
# Target sequence (O88943 whole entry, looked up): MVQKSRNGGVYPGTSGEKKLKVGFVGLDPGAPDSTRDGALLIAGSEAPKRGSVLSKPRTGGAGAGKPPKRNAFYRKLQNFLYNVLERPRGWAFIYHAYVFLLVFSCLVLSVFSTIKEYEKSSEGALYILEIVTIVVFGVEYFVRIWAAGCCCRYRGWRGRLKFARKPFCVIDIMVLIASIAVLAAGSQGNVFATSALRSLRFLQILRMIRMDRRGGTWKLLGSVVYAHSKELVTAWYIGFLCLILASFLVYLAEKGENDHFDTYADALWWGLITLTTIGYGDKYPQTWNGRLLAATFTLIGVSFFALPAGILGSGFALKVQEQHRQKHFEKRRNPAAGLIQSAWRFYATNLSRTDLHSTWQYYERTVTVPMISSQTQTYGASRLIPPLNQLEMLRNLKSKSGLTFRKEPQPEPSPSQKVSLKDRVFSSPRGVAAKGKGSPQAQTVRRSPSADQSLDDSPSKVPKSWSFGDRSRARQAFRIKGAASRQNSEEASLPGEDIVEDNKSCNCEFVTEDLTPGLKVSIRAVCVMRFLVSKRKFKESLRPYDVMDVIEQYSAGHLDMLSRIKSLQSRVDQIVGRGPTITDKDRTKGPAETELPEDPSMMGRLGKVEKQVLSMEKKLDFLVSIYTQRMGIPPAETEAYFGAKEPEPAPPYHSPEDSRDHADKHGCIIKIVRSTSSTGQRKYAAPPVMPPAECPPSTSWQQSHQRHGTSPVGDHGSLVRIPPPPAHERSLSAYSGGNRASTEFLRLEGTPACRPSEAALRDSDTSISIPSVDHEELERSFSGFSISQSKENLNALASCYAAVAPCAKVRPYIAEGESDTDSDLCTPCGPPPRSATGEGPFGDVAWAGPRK
# KCNQ2 inh baseline = also measured in KCNQ2 inh; calls as there; B-score; measured here: initial fluorescence intensity artifact check;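 brightness before thallium and not channel activity; 0 = typical well and far values either way flag optical interference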
# The depositor's hits bear a star; i = inactive. An excerpt; rates above refer to the full screens.
SMILES,KCNQ2 inh,KCNQ2 inh baseline
COCCCC/C(=N\OCCN)c1ccc(C(F)(F)F)cc1,i,-0.73
CC1CN(c2oc(COc3ccc(Cl)cc3Cl)nc2C#N)CC(C)O1 (stereo not given),i,0.16
CCOC(=O)C(Cc1ccc(NC(=O)/C(=C\c2ccccc2)NC(=O)c2ccccc2)cc1)N1C(=O)c2ccccc2C1=O (stereo not given),i,5.91
CCCC(c1nnnn1CCOC)N1CCN(c2nc3ccccc3s2)CC1 (stereo not given),i,-0.89
CC(C)CNC(=O)NC(=O)COC(=O)c1cc(F)cc(F)c1,i,1.7
Cc1ccccc1S(=O)(=O)Cc1ccc(C(=O)NCCCN2CCC(C)CC2)o1,i,-2.04
COc1ccc(-n2nc(C(=O)NCC(=O)NCC3COc4ccccc4O3)c3ccccc3c2=O)c(OC)c1 (stereo not given),i,-0.91
COc1cc(C(=O)N(Cc2ccccc2)c2cccc(C)c2)ccc1OC(F)F,i,-0.39
O=C(COc1ccc(C(=O)NCCN2CCOCC2)cc1)Nc1cccc(C(F)(F)F)c1,-5.73*,0.19*
CC(C)N(Cc1ccccc1)C(=O)COC(=O)c1ccc2c(c1)OCCO2,i,0.51
CCC(C(=O)NC1CCCC1)N(C(=O)Cn1nnc(-c2ccc(C)o2)n1)c1ccc(F)cc1 (stereo not given),i,0.62
CCOC(=O)c1sc(NC(=O)c2cccc(S(=O)(=O)N3CCN(C)CC3)c2)cc1C,i,-0.25
CC(=O)N1c2ccc(S(=O)(=O)NCC3CCC(C(=O)NC4CCC(C)CC4)CC3)cc2CC1C (stereo not given),i,-0.12
CN(CCc1ccccn1)C(=O)c1cc(COc2ccc(F)cc2F)on1,i,-0.73
CCCOc1ccc(/C=N/Nc2cccc([N+](=O)[O-])c2)c(O)c1,i,-0.53
Cc1ccc(-c2[nH]ncc2/C=N/n2c(C)nc3ccccc3c2=O)cc1,i,0.18
Nn1c(C2COc3ccccc3O2)n[nH]c1=S (stereo not given),i,-1.57
N#Cc1ccc(NC(=O)Nc2ccc(Oc3ccc(NC(=O)Nc4ccc(C#N)cc4)cc3)cc2)cc1,i,-1.52
Cc1nc2c(Br)cc(Br)cc2cc1O,i,-1.5
Cc1cccnc1NC(=O)c1ccc(COc2ccccc2)o1,i,-1.73
Cc1cc2c(n1-c1ccc(Cl)cc1)CC(C)(C)CC2=O,i,-0.01
Cc1cc(NC(=O)c2sc3ccccc3c2O)no1,i,0.76
Cc1ccc(OCc2nnc(SCc3cc(=O)[nH]c4ccccc34)n2-c2ccccc2)cc1,i,0.61
Cc1cccc(-n2nnc(C(=O)NCc3ccccc3Cl)c2N)c1,i,-0.65
COc1ccc(NC(=O)CCN2C(=O)C3C4CCC(C4)C3C2=O)cc1 (stereo not given),i,0.04
COC(=O)C1=C(C)NC(C)=C(C(=O)OC)C1c1ccc(OC(=O)c2oc3ccccc3c2C)c(OC)c1,i,-0.46
N#Cc1sc2nc(-c3cccs3)cc(-c3ccc(Cl)cc3)c2c1N,i,-0.48
Cc1cccc(S(=O)(=O)Nc2ccc(-n3c(C)nc4ccccc4c3=O)cc2)c1,i,0.16
Cc1ccc2[nH]c(=O)c(CN(Cc3cccs3)C(=S)NCc3ccco3)cc2c1,i,-1.47
COc1ccc(NC(=S)N2CCC(C(=O)N3CCCCCC3)CC2)cc1,i,-0.37
COC(=O)C1CCN(S(=O)(=O)Cc2ccccc2)CC1,i,4.03
Cc1nc(N2CCCCC2C)c2c(C)c(C(=O)Nc3cccc(C(F)(F)F)c3)sc2n1 (stereo not given),i,-1.5
CCn1c2ccccc2c2cc(CN3CCN(S(C)(=O)=O)CC3)ccc21,i,1.54
Cc1ccc(Cl)cc1NS(=O)(=O)c1ccc2c(c1)NC(=O)C(C)C(=O)N2 (stereo not given),i,-0.46
Brc1ccccc1OCCN1CCOCC1,i,0.45
CCOCCN1CCN(c2c3c(nc4cc(-c5ccc(F)cc5)nn24)CCC3)CC1,i,2.03

# Four entries from above, with each value named.
Cc1ccc(Cl)cc1NS(=O)(=O)c1ccc2c(c1)NC(=O)C(C)C(=O)N2 (stereo not given)
- KCNQ2 inh: i
- KCNQ2 inh baseline: -0.46

CCn1c2ccccc2c2cc(CN3CCN(S(C)(=O)=O)CC3)ccc21
- KCNQ2 inh: i
- KCNQ2 inh baseline: 1.54

COc1ccc(NC(=S)N2CCC(C(=O)N3CCCCCC3)CC2)cc1
- KCNQ2 inh: i
- KCNQ2 inh baseline: -0.37

Cc1cccc(S(=O)(=O)Nc2ccc(-n3c(C)nc4ccccc4c3=O)cc2)c1
- KCNQ2 inh: i
- KCNQ2 inh baseline: 0.16

# Other entries.
SMILES,KCNQ2 inh,KCNQ2 inh baseline
CC(C)c1ccc(O)c(NC(=O)c2ncn[nH]2)c1,i,0.26
COC(=O)CNC(=O)c1ccccc1C,i,-0.51
Cc1cc(C)cc(N2C(=O)CC(Sc3ncn[nH]3)C2=O)c1 (stereo not given),i,2.27
O=C1CC(=O)Nc2cc(S(=O)(=O)Nc3ccc(F)cc3Cl)ccc2N1,i,-1.52
CCOc1ccc(Br)cc1CNCc1cccnc1,i,0.87
CCOc1ccccc1N1CC(C(=O)NCCOc2ccccc2OC)CC1=O (stereo not given),i,-1.17
COCCNC(=O)c1cn(C(C)c2ccccc2F)nn1 (stereo not given),i,-0.77
Cc1ccn2c(=O)c(NC(=O)c3ccc(Br)o3)c(C)nc2c1,i,1.1
Cc1ccc(SCc2cc(=O)[nH]c(Nc3nc(C)c4ccc(C)cc4n3)n2)cc1,i,0.49
COc1ccc(C(=O)N/C(=C/c2ccco2)C(=O)N2CCCCCC2)cc1,i,0.45
CN(C)C(CNC(=O)CCCOc1ccccc1)c1ccco1 (stereo not given),i,-0.16
CC(C)C(NC(=O)Cc1ccccc1[N+](=O)[O-])C(C)C,i,0.38

# Sorted by molecular weight (rising): part of the list above.
SMILES,KCNQ2 inh,KCNQ2 inh baseline
CC(C)c1ccc(O)c(NC(=O)c2ncn[nH]2)c1,i,0.26
Cc1cc(C)cc(N2C(=O)CC(Sc3ncn[nH]3)C2=O)c1 (stereo not given),i,2.27
Cc1ccn2c(=O)c(NC(=O)c3ccc(Br)o3)c(C)nc2c1,i,1.1
CCOc1ccccc1N1CC(C(=O)NCCOc2ccccc2OC)CC1=O (stereo not given),i,-1.17
Cc1ccc(SCc2cc(=O)[nH]c(Nc3nc(C)c4ccc(C)cc4n3)n2)cc1,i,0.49

# Next section
SMILES,KCNQ2 inh,KCNQ2 inh baseline
CCOC(=O)Cc1[nH]nc2c1C(c1ccsc1)C(C#N)=C(N)O2 (stereo not given),i,-2
O=C(COc1ccc2c(c1)OCO2)Nc1ccccc1F,i,1.44
CCOC(=O)N1CCN(C(=S)NC(=O)c2ccc(F)c(F)c2)CC1,i,-1.27
C/C(N)=C(/C#N)C(=O)COC(=O)c1ccccc1Cc1ccccc1,i,0.57
CC(Oc1ccccc1C(N)=O)C(=O)Nc1ccc(S(=O)(=O)N2CCCC2)cc1 (stereo not given),i,2.07
CCc1cc2c(=O)[nH]c(Cc3ccc(OC)cc3)nc2s1,i,-0.68
COC(=O)/C=C1/S/C(=N/NC(=O)c2ccccc2)NC1=O,i,-0.09
c1ccc2sc(SCc3ccc(-c4nnco4)cc3)nc2c1,-7.1*,-1*
CN1CCN(C(=O)C2=C[C@H](c3csc4ccccc34)C[C@H](OCc3ccc(CO)cc3)O2)CC1,i,3.42
CN(c1ccccc1)S(=O)(=O)c1cccc(C(=O)OCC(=O)NCCCN2CCCC2=O)c1,i,-2.59
O=C(CCC(=O)N(CC(=O)NC1CCCC1)Cc1ccc2c(c1)OCO2)Nc1nccs1,i,-0.07
COc1cc(/C=N/NC(=O)c2ccc(O)cc2)ccc1OCC(=O)N1CC(C)OC(C)C1 (stereo not given),i,0.02
O=C(Nc1ccc2c(c1)OCO2)C(c1ccc(Cl)cc1)N1CCC2(CC1)OCCO2 (stereo not given),i,-0.45
Cn1nc(C(F)(F)F)c(/C=N/OC(=O)c2ccccc2)c1SCc1ccccc1Cl,i,0.04
Cc1ccc(C2C=C(c3ccc4c(c3)OCO4)Nc3ncnn32)cc1 (stereo not given),i,0.03
O=C(COc1ccc(Br)cc1F)NC1CCN(Cc2ccccc2)CC1,i,-0.92
O=C(N/N=C/c1cc([N+](=O)[O-])ccc1O)c1cccc2ccccc12,i,-2.33
Cc1ccc(S(=O)(=O)NCCC(=O)N2CCN(S(=O)(=O)c3ccccc3)CC2)cc1C,i,0.68
CC(CC(=O)Nc1nc2ccccc2[nH]1)n1ccnc1 (stereo not given),i,2.31
COc1ccc(-c2cc(C(=O)Nc3ccc(O)cc3)c3ccccc3n2)cc1OC,i,-0.09
Cc1ccc(C(c2c(C)[nH][nH]c2=O)c2c(C)[nH][nH]c2=O)cc1,i,-0.9
COc1ccc(N2CCN(C(=O)CSc3ccccc3N)CC2)cc1,i,-1.54
O=C(Nc1ccc(C(=O)O)cc1)/C(=C/c1cccc(Br)c1)NC(=O)c1ccco1,i,0.01
Cn1c(SCC(=O)N(Cc2ccccc2)C(C)(C)C)nc2ccccc21,i,-0.31
COc1ccc(S(=O)(=O)NCc2ccc(C(=O)N3CCN(c4ccccn4)CC3)cc2)cc1,i,0.55
Cc1ccc(CNC(=O)[C@@H](NC(=O)C2CCN(C(=O)[C@@H]3CCCN3)CC2)C(C)C)cc1,i,0.27
CCc1ccc(CN2CCN(C(=O)c3cccc(OC)c3OC)CC2)cc1,i,-1.92
COc1ccc(OC)c(-c2cc(C(=O)Nc3sc4c(c3C#N)CCC(C)C4)c3ccccc3n2)c1 (stereo not given),i,-0.05
O=C1CSc2ccc(S(=O)(=O)N3CCN(c4ccccc4F)CC3)cc2N1,i,0.21
CN(C(=O)COC(=O)c1ccc2c(=O)n3c(nc2c1)CCC3)c1ccccc1,i,-0.02
N/C(=N\NC(=O)c1cccs1)c1cc2ccccc2oc1=O,i,1.88
CC1CN(C(=O)c2cccc(S(=O)(=O)N3CCN(c4ccc(F)cc4)CC3)c2)CC(C)O1 (stereo not given),i,0.56
COc1ccc(S(=O)(=O)N[C@@H](Cc2ccc(Cl)cc2)C(=O)N2CC[C@@]3(O)CCCC[C@H]3C2)cc1,i,-0.33
O=C1CCc2cc(S(=O)(=O)NCCC(=O)NC3CCCCC3)ccc2N1,i,-0.47
COc1ccc(CC(=O)Nc2cc(C)c3c(=O)oc4ccccc4c3n2)cc1,i,1.34
COc1ccccc1CNC(=O)C1(c2ccc(Cl)cc2)CC1,-5.74*,0.36*
CCCCCc1c2c(cc(O)c1C(=O)O)OC(=O)c1c(cc(OC)cc1C(=O)CCCC)O2,-6.67*,-2.14*
Cc1ccc(CNC(=O)C(=O)NCC2OCCN2S(=O)(=O)c2ccc(C)cc2)cc1 (stereo not given),i,0.26
Cc1ccc(S(=O)(=O)NC(=O)Nc2cccc([N+](=O)[O-])c2)cc1,i,1.69
Cc1ccc(S(=O)(=O)N2CCCCC2)cc1NC(=O)CSc1ncnc2ccccc12,i,0.4
Cc1ccc(NS(=O)(=O)c2cccc(C(=O)Nc3c(C)n(C)n(-c4ccccc4)c3=O)c2)cc1,i,-0.06
COc1ccc(CC2=CC(=O)c3ccccc3C2=O)cc1,i,-2.36
CCN1CCN(Cc2cc(=O)oc3cc4c(cc23)CCC4)CC1,i,18.2
CCOC(=O)/C(=N/Nc1ccc(C)cc1)S(=O)(=O)c1ccc(Cl)cc1,i,1.69
Cc1nnc(SCC(=O)Nc2nccs2)n(N)c1=O,i,-0.37
COc1cc(/C=C(/C#N)C(=O)c2c(C)[nH]c3ccccc23)ccc1OCC#N,i,-1.66
COCCN(CCOC)c1ncc(Cl)c(C(=O)c2c(C)cc3ccccn23)n1,i,-0.7
CCN1CCN(c2cc(C)c3cc(NC(=O)c4cncc(Br)c4)ccc3n2)CC1,i,-0.25
CCOc1cccc(-c2nnc3sc(COc4ccc(OC)cc4)nn23)c1,i,1.07
CC(=O)Nc1ccc(S(=O)(=O)Nc2ccc3ccccc3n2)cc1,i,-0.98
CCOC(=O)c1c(C#N)c(SCC(=O)Nc2ccc(OC)cc2)nc2c1CN(CC)CC2,i,0.39
O=C(O)c1ccccc1NS(=O)(=O)c1cccc(C(F)(F)F)c1,i,0.66
COc1ccc(CNC(=O)CSc2nnnn2-c2ccccc2)cc1,i,0.72
S=C(NCCCN1CCOCC1)Nc1ccc(Cl)cc1,i,1.08
O=C(Oc1ccc(-c2csnn2)cc1)c1cccs1,i,1.14
CCOC(=O)COc1c(OC)cc(Cl)cc1C1Nc2ccccc2C(=O)N1c1cccc(C)c1 (stereo not given),-10*,-0.29*
Cc1cccc(N2CCN(C(=O)CCC(=O)N3CC(C)Oc4ccccc43)CC2)c1C (stereo not given),-5.88*,1.66*
Cc1cc(C)cc(-n2nnnc2SCC(=O)Nc2nc(-c3ccc(Cl)cc3)cs2)c1,i,0.2
CC1(C)C2CCC1(CS(=O)(=O)Nc1ccc(S(=O)(=O)NC3CCCCC3)cc1)C(=O)C2 (stereo not given),i,-1.24
COc1ccc(OC)c(CNC(=O)CCC(=O)N2Cc3ccccc3Oc3ncccc32)c1,i,0.65

# (listing goes on)
SMILES,KCNQ2 inh,KCNQ2 inh baseline
CCSc1nnc(NC(=O)CCNS(=O)(=O)c2cc(Br)cnc2N)s1,i,-0.01
COc1ccc(-c2ccc(/C=N/NC(=O)Cc3nnc(N)s3)o2)cc1Cl,-7.42*,-0.94*
O=C(Nc1ccc(-n2cccn2)cc1)C1CCN(Cc2ccccn2)CC1,i,1.4
Cc1cc[n+](CC(=O)c2ccc(NC(=O)c3ccccc3)cc2)c2ccccc12,i,-1.39
CCC(=O)Nc1ccc(C(=O)CSc2nnc(-c3ccc(O)cc3)n2CC2CCCO2)cc1OC (stereo not given),i,0.58
CC(C)CN1C(=O)c2ccccc2C1(O)Cc1ccccc1 (stereo not given),i,-1.96
CCn1c(NC(=O)c2ccccc2F)c(-c2cccs2)c(=O)c2ccccc21,i,-1.79
